# HCMV NEC inh: inhibitors of HCMV UL50-UL53 interaction, biochemical, HTRF. HCMV UL50-UL53 nuclear egress complex (human cytomegalovirus). normalized percent inhibition. inhibition, % (no concentration beside the values). actives 0.15% (n = 190,000);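 active = both replicates at 50% or more, plus weaker picks with an unusually low signal ratio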;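 also: stock transfer was 100 nL into about 20 µL; 0% = negative control wells and 100% = wells with untagged competitor protein; inactives centre near -12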
# Sa growth inh: S. aureus growth inhibition at 42 and 30 °C, primary screen, LtaS inhibitor project, RN4220, two temperatures | AID 720641, 2013 | actives 0.53% (n = 170,000) | OD600, 20 h, 42 °C; hits give low values | relative growth, % (concentration not given with the values);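 active = growth at 42 °C up to 50% and 20 or more points under that at 30 °C, or under 10% at both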;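 also: 300 nL library stock went into each well; scaled to the means of positive and negative controls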
# GIV-Gai inh: inhibitors of GIV peptide binding to Galpha-i3, primary screen, biochemical, fluorescence polarization, FITC-GIV GBA peptide, rat Galphai3 | 90 min; hits give low values; scaled: aluminum fluoride 0%, vehicle 100% | percent of control (FP), % (concentration not given with the values) | actives 0.42% (n = 210,000) | AID 1224905, 2016;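 active = replicate mean at 85% of control or lower, very high polarization wells dropped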;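 also: wells of about 15 µL received 100 nL stock; the first replicate is given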
# Target sequence (P08753 whole entry, looked up): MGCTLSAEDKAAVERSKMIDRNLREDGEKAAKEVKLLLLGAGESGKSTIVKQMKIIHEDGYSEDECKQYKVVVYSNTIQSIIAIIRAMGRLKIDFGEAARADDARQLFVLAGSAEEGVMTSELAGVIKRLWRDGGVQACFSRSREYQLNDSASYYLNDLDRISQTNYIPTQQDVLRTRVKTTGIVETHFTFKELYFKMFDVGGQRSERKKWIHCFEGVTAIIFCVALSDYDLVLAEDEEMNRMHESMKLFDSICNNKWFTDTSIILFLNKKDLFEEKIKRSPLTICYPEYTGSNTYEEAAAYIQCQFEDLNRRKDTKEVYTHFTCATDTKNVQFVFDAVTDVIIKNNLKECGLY
# Sa growth inh second temp: recorded beside Sa growth inh, whose call it bears; relative growth, %; measured here: growth at 30 °C;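 optical density after 20 h as mean of two plates; 100% = untreated growth and lower means inhibition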
# Numbers without * were called inactive; / = no result given.
SMILES,HCMV NEC inh,Sa growth inh,Sa growth inh second temp,GIV-Gai inh
Cc1ccc(C)c(N2CCN(C(=O)c3cc(S(=O)(=O)N4CCCCC4)cn3C)CC2)c1,/,92.4,89.8,101.7
N#CCCn1[nH]c(-c2ccccc2)cc1=O,-5.1,87.4,78.9,100.7
Cn1c(SCc2cccnc2)nnc1C1CCCN(C(=O)C2CCCO2)C1 (stereo unspecified),-23.4,93.3,80.5,100.5
CCCN(CCC)S(=O)(=O)c1ncn[nH]1,-36.0,85.5,80.1,102.3
Cc1noc(C)c1S(=O)(=O)Nc1cc2c(cc1Sc1ccc(F)cc1)n(C)c(=O)n2C,-38.5,/,/,102.0
CCN1/C(=C2\C(=O)N(C)C(=S)N2c2ccccc2)C=Cc2cc(C)ccc21,-104.6,94.0,81.9,108.8
CCc1ccc(C2=C(C)C(N3CCC(C(=O)NCc4ccccc4)CC3)=NS2(=O)=O)cc1,/,97.3,89.4,100.5
O=C(NCCCc1ccccc1)c1cc2c(s1)CS(=O)(=O)C2,-6.7,91.7,83.9,105.1
COc1cc([N+](=O)[O-])ccc1NC(=O)N1CCN(c2cc(-c3noc(C)n3)ccc2C)CC1,/,85.7,89.7,108.8
CCN(CC)CCNc1cc(C)nc2c(-c3ccc(F)cc3)cnn12,4.9,/,/,102.3
COc1cc(C(=O)N/N=C/c2ccc(OC(=O)N3CCOCC3)cc2)cc(OC)c1OC,-16.8,91.3,93.8,101.4
C=C1C(C(=O)NCc2ccco2)C1C(=O)NCc1ccco1 (stereo unspecified),-4.3,99.4,91.3,/
COc1cccc(NC(=O)CC2NCCNC2=O)c1 (stereo unspecified),8.0,88.2,88.8,103.6
Nc1sc2ccccc2[n+]1C(=O)OCc1ccccc1,-4.8,96.4,117.0,/
Cc1ccc(Nc2c3c(nc4ncnn24)CCCC3)cc1F,-6.8,/,/,113.2
O/N=C/c1cn(CC(O)Cn2cnc3ccccc32)c2ccccc12 (stereo unspecified),-15.8,133.6,82.1,104.5
COc1ccc(Cl)cc1NC(=O)Cn1nc(C(F)(F)F)cc1C,-16.1,101.1,95.8,94.3
CS(=O)(=O)N1Cc2ccccc2CC1C(=O)OCC(=O)N1CC(=O)Nc2ccccc21 (stereo unspecified),-13.4,109.5,91.7,/
Cc1cc(C(=O)NCCc2ccc(Cl)cc2)c2ccccc2n1,-30.2,/,/,103.2
COc1cc(CN(CC2CCCO2)C(=O)c2ccccc2F)cc(OC)c1OC (stereo unspecified),-35.0,99.6,81.0,103.7
COc1cc(NC(=O)N2c3ccccc3Sc3ccccc32)cc(OC)c1,-32.7,93.2,85.5,104.8
c1ccc(CSc2nn3cc(-c4ccccc4)nc3s2)cc1,-7.1,114.5,96.5,/
COc1ccc(C(=O)O)cc1S(=O)(=O)NC(C)(C)C,-2.2,96.7,90.8,/
CCOc1cc(/C=c2\sc3n(c2=O)C(c2ccc(OC)cc2)C(C(=O)OC)=C(C)N=3)ccc1OC(C)=O (stereo unspecified),-20.6,/,/,104.3
CC(C)Cn1c(=O)c2ccc(C(=O)NC3CCCC3)cc2n2c(=O)n(CC(=O)NC(C)(C)C)nc12,-40.8,/,/,108.5
# The list goes on:
SMILES,HCMV NEC inh,Sa growth inh,Sa growth inh second temp,GIV-Gai inh
c1cncc(-c2nc(NCc3ccncc3)c3ccccc3n2)c1,-5.4,97.1,63.5,/
CCN(CC)c1ccc(C(=O)Nc2ccc3nc(N(CC)CC)cc(C)c3c2)cc1,-13.1,93.4,95.2,98.6
Cc1ccccc1-n1nc(CO)c(C(=O)NCC(c2ccccc2)c2ccccc2)n1,-30.2,102.4,88.4,96.3
O=C(COn1nnc2ccc(Cl)cc21)Nc1ccccc1,-35.2,88.7,89.2,/
COc1cc(OC)cc(C(=O)Nc2ccc(S(=O)(=O)N3CCCCC3c3cccnc3)cc2)c1 (stereo unspecified),/,104.9,85.0,102.2
Cc1ccccc1C(=O)N(CC#N)CC#N,-1.8,106.8,85.7,/
CCCCc1nn2c(=O)cc(COC(=O)c3cccs3)nc2s1,/,103.2,92.8,102.4
CC(C)n1c(SCC(N)=O)nc2c(oc3ccccc32)c1=O,/,101.7,80.6,101.9
CCn1c2ccccc2c2nnc(NCc3ccccc3)nc21,-16.1,106.8,86.6,103.7
CCCCN(CC)C(=O)c1cc2c(C)nn(-c3ccc(Cl)cc3)c2s1,-35.2,88.5,91.7,/
COc1ccc(-c2nnc(SCC(=O)NC(Cc3ccccc3)C(=O)O)o2)cc1 (stereo unspecified),10.9,102.0,98.1,/
O=C(CC(NC(c1ccccc1)c1ccccc1)C(=O)O)c1ccc(Cl)cc1 (stereo unspecified),8.6,108.2,62.7,/
N#Cc1c(NC(=O)CSc2ccccn2)oc(-c2ccccc2)c1-c1ccccc1,-15.6,79.5,93.2,/
CCCOc1ccc(C(=O)NCC2OCCc3ccccc32)cc1 (stereo unspecified),-15.9,103.7,97.5,108.4
O=C(O)c1nn(CC(=O)N2CCc3ccccc32)c(=O)c2ccccc12,-5.6,88.2,89.4,/
COC(=O)[C@@H](NS(=O)(=O)c1ccc(Cl)c(Cl)c1)C(C)C,-5.9,98.6,87.9,/
CCOc1ccccc1CC1C(=O)Nc2ccc(Br)cc21 (stereo unspecified),22.6,115.7,82.7,107.2
O=C(Cn1nnc(-c2cccc(F)c2)n1)N1CCCC1c1ccc2c(c1)OCCO2 (stereo unspecified),2.2,101.4,90.6,/
O=C(O)CCc1nnc2ccc(NCc3ccco3)nn12,-19.8,86.2,80.2,99.2
C=CCn1c(CCNC(=O)c2ccc(OC)cc2)n[nH]c1=S,/,74.8,90.5,100.0
Cc1ccc2c(CSc3nncs3)cc(=O)oc2c1,3.7,114.2,95.1,/
Cc1cccc(-c2noc(-c3ccc(NCC4CCCO4)c([N+](=O)[O-])c3)n2)c1 (stereo unspecified),-0.7,105.4,98.0,105.7
Cc1nc2sc3ccccc3n2c(=O)c1S(=O)(=O)NCCc1ccc(Cl)cc1,-30.2,/,/,98.6
COC(=O)C1C(=O)C=C(N2CCOCC2)CC1(C)C (stereo unspecified),-10.5,118.4,98.7,102.4
OC(c1nc2ccccc2o1)(c1c[nH]c2ccccc12)C(F)(F)F (stereo unspecified),-5.7,99.6,89.4,/

# A second format for part of the listing above.
# Results follow in this order: HCMV NEC inh | Sa growth inh | Sa growth inh second temp | GIV-Gai inh
- c1ccc(CSc2nn3cc(-c4ccccc4)nc3s2)cc1
→ -7.1 | 114.5 | 96.5 | /
- COc1ccc(C(=O)O)cc1S(=O)(=O)NC(C)(C)C
→ -2.2 | 96.7 | 90.8 | /

# 21 compounds out of the list, arranged by formula weight, falling:
SMILES,HCMV NEC inh,Sa growth inh,Sa growth inh second temp,GIV-Gai inh
COc1cc(OC)cc(C(=O)Nc2ccc(S(=O)(=O)N3CCCCC3c3cccnc3)cc2)c1 (stereo unspecified),/,104.9,85.0,102.2
Cc1nc2sc3ccccc3n2c(=O)c1S(=O)(=O)NCCc1ccc(Cl)cc1,-30.2,/,/,98.6
COc1ccc(-c2nnc(SCC(=O)NC(Cc3ccccc3)C(=O)O)o2)cc1 (stereo unspecified),10.9,102.0,98.1,/
Cc1ccccc1-n1nc(CO)c(C(=O)NCC(c2ccccc2)c2ccccc2)n1,-30.2,102.4,88.4,96.3
N#Cc1c(NC(=O)CSc2ccccn2)oc(-c2ccccc2)c1-c1ccccc1,-15.6,79.5,93.2,/
CCN(CC)c1ccc(C(=O)Nc2ccc3nc(N(CC)CC)cc(C)c3c2)cc1,-13.1,93.4,95.2,98.6
O=C(CC(NC(c1ccccc1)c1ccccc1)C(=O)O)c1ccc(Cl)cc1 (stereo unspecified),8.6,108.2,62.7,/
Cc1cccc(-c2noc(-c3ccc(NCC4CCCO4)c([N+](=O)[O-])c3)n2)c1 (stereo unspecified),-0.7,105.4,98.0,105.7
CCCCN(CC)C(=O)c1cc2c(C)nn(-c3ccc(Cl)cc3)c2s1,-35.2,88.5,91.7,/
CCOc1ccccc1CC1C(=O)Nc2ccc(Br)cc21 (stereo unspecified),22.6,115.7,82.7,107.2
COC(=O)[C@@H](NS(=O)(=O)c1ccc(Cl)c(Cl)c1)C(C)C,-5.9,98.6,87.9,/
OC(c1nc2ccccc2o1)(c1c[nH]c2ccccc12)C(F)(F)F (stereo unspecified),-5.7,99.6,89.4,/
CCCOc1ccc(C(=O)NCC2OCCc3ccccc32)cc1 (stereo unspecified),-15.9,103.7,97.5,108.4
C=CCn1c(CCNC(=O)c2ccc(OC)cc2)n[nH]c1=S,/,74.8,90.5,100.0
CC(C)n1c(SCC(N)=O)nc2c(oc3ccccc32)c1=O,/,101.7,80.6,101.9
c1cncc(-c2nc(NCc3ccncc3)c3ccccc3n2)c1,-5.4,97.1,63.5,/
CCn1c2ccccc2c2nnc(NCc3ccccc3)nc21,-16.1,106.8,86.6,103.7
Cc1ccc2c(CSc3nncs3)cc(=O)oc2c1,3.7,114.2,95.1,/
O=C(O)CCc1nnc2ccc(NCc3ccco3)nn12,-19.8,86.2,80.2,99.2
COC(=O)C1C(=O)C=C(N2CCOCC2)CC1(C)C (stereo unspecified),-10.5,118.4,98.7,102.4
Cc1ccccc1C(=O)N(CC#N)CC#N,-1.8,106.8,85.7,/

# More records.
SMILES,HCMV NEC inh,Sa growth inh,Sa growth inh second temp,GIV-Gai inh
Cc1ccc2c(c1)C=C(C(=O)NCc1ccccc1)C=CO2,-33.9,/,/,102.5
Cn1c(=O)c2ccccc2n(Cc2ccc(Cl)cc2)c1=O,-9.5,110.3,78.1,97.6
Cc1ccc(S(=O)(=O)CCC(=O)Nc2ccc(C)c(C)c2)cc1,/,91.4,93.9,101.6
O=C(NCc1ccc(-c2csnn2)cc1)c1ccccc1C(F)(F)F,1.1,96.3,69.4,98.4
O=C(COC(=O)/C=C/c1ccco1)Nc1cccc(C(F)(F)F)c1,-19.3,84.2,93.2,/
CC1CCCN(CC(=O)Nc2ccc(C(=O)O)cc2)C1 (stereo unspecified),-22.3,86.8,93.1,103.1
O=C1CCN(c2cc(C(F)(F)F)nc3cc(Cl)cc(Cl)c23)CC1,-18.6,74.0,60.0,101.2
CCOC(=O)C(C(=O)Nc1ccc(Br)cc1)C1CCCCC1 (stereo unspecified),/,107.6,88.9,99.5
COC(=O)c1ccc(NC(=O)CSc2ncc3c(n2)-c2cc(Cl)ccc2N(Cc2ccccc2)S3(=O)=O)cc1,/,85.3,87.3,99.6
O=C1c2ccccc2C(=O)C1C(c1ccco1)C1C(=O)c2ccccc2C1=O,-47.7,95.4,101.6,101.6
CC1CCCCC1NC(=O)COc1ccc2c(c1)C(=O)CC(C)(C)O2 (stereo unspecified),0.0,82.3,87.6,102.1
O=C(c1ccccc1)N1CCN(c2ccc(NCC3CCCO3)nn2)CC1 (stereo unspecified),-36.7,100.6,101.8,105.0
CC(=O)c1cccc(NC(=O)CN2C(=O)CCc3cc(S(=O)(=O)N4CCCCC4)ccc32)c1,/,82.8,91.7,99.8
COC(=O)C1=CN(c2cccc(C(F)(F)F)c2)C=C(C(=O)OC)C1c1ccsc1,/,84.8,92.4,107.5
CC(C)NCc1cc(=O)n2[nH]c(NCc3ccccc3)nc2n1,-27.6,/,/,101.1
CCCS(=O)(=O)c1ncc(Cl)c(C(=O)Nc2c(C(=O)Nc3ccccc3)oc3ccccc23)n1,-7.2,102.5,70.5,100.2
O=C(CN1C(=O)C2CC=CCC2C1=O)OCC(=O)c1c[nH]c2ccccc12 (stereo unspecified),-12.1,93.2,104.3,/
O=C(NC(O)C(=O)c1cccs1)c1cccnc1 (stereo unspecified),/,97.7,76.4,101.8
CCc1nnc(NC(=O)CSc2nccn2Cc2ccc(Cl)cc2)s1,/,97.9,91.2,100.2
CCNC(=O)CCCc1nc(-c2ccccc2)no1,9.6,106.2,97.0,108.8
Cc1ccc2nc3c(cc2c1)CCN3S(=O)(=O)c1ccc2c(c1)OCO2,-5.1,/,/,101.8
CCOC(=O)C1CCN(c2c(NCCCN3CCC(C)CC3)c(=O)c2=O)CC1,-27.0,/,/,101.0
Cc1ccc(-c2nn3c(=O)cc(N4CCN(C(=O)C5CCCCC5)CC4)nc3s2)cc1,-32.6,/,/,100.3
COc1ccc(-c2cc(-c3nnc(COC(=O)C4COc5ccccc5O4)o3)c3ccccc3n2)cc1OC (stereo unspecified),-23.9,98.3,90.8,/
CCOc1cc2[nH]c(=O)n(CC3CCC(C(=O)NCCC(C)C)CC3)c(=O)c2cc1OCC (stereo unspecified),2.5,97.2,89.2,102.5
# Additional structures:
SMILES,HCMV NEC inh,Sa growth inh,Sa growth inh second temp,GIV-Gai inh
CCN1CCN(c2ncc3c(n2)CC(C)CC3=O)CC1 (stereo unspecified),-8.8,/,/,99.1
COc1ccc(/C=C2/C(=O)N(C)c3ccccc32)cc1,-40.5,20.7,29.0,/
COC(=O)c1cc2sccc2n1CC(=O)Nc1ccc(C)cc1C,-36.8,122.5,92.8,107.2
O=C(Nc1cccc(-c2nc3cc(Cl)cc(Cl)c3o2)c1)c1ccc2c(c1)OCCO2,-16.7,/,/,103.4
COc1ccc(CNC(=O)C2C3C=CC(O3)C2C(=O)O)cc1OC (stereo unspecified),-8.2,90.6,101.5,100.6
O=C(CSc1nnc(-c2ccncc2)n1-c1ccccc1)Nc1ccccc1,/,95.3,96.3,106.1
CCC(Sc1nc2ncccc2[nH]1)C(=O)NC1CCCC1 (stereo unspecified),-30.5,98.0,79.6,98.4
COc1ccc(S(=O)(=O)N2CCCC2C(=O)Nc2c(C)n(C)n(-c3ccccc3)c2=O)cc1 (stereo unspecified),0.2,94.3,97.2,/
O=C(O)c1ccc(Cl)c(N2CCCC2=O)c1,-20.5,78.3,92.5,/

# Source: PubChem BioAssay (ICCB-Longwood Screening Facility, Harvard Medical School)
